rRNA inh HTS – selective bacterial rRNA inhibition in E. coli; E. coli WT GFP vs humanized-ribosome RFP mutants, fluorescence, 24 h; active compounds read low; DMSO median 0, no signal -100; GFP signal change (wild-type ribosome), % (test concentration not listed); 350,000 compounds, 1.6% hits; AID 720706;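 active means significant combined selectivity score with lowered wild-type GFP, culture density cut under 30%, mutant RFP and density less affected; inactive means any of these conditions unmet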; further: one replicate is shown; some compounds called inactive have numbers as strong as hits
Beta apoptosis – blocks beta cell apoptosis; 300,000 compounds, 0.8% hits; INS-1E cytokine-induced death, ATP luminescence, 48 h; percent of positive-control rescue, neutral wells zero; protection from apoptosis, % (no concentration beside the values);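 active means all replicates at 75% or more, or half of them and the mean; inconclusive means half reach 75% but not the mean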;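 further: 0% = cytokine-treated negative control wells and 100% = positive control rescue; higher means more ATP so stronger rescue from cytokine killing; wells of about 40 µL received 100 nL stock; the first replicate is given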
RanGTP-Impb inh – disruptors of Ran-importin-beta complex formation – biochemical, FRET, CFP-Ran, YFP-importin-beta, homogeneous, primary screen | cell-free CFP-Ran/YFP-importin-beta FRET ratio | inhibition, % (test concentration not listed) | 300,000 compounds, 1.1% hits | AID 2216;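 active means most replicates above 15%; inconclusive means exactly half above 15%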;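 further: 0% = DMSO wells and 100% = Ran loaded with GDP instead of GTP; wells of about 40 µL received 100 nL stock; the first replicate is given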
T cruzi repl – T. cruzi replication inhibition | 300,000 compounds, 1.4% hits | T. cruzi beta-gal in NIH3T3, luminescence, 90 h | inhibition, % (no concentration beside the values);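 active means mean inhibition across valid replicates above about 55%, limit read from the data; inconclusive means mean below that limit but half or more replicates reach it; inactive means mean below it, under half of replicates reach it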;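 further: signal also drops with host cell toxicity which is not excluded here; 0% = plate median of DMSO wells and 100% = zero luminescence signal; higher percent means less beta-gal luminescence so fewer parasites; stock transfer was 50 nL into about 50 µL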
A1 inh – inhibitors of the anti-apoptotic protein A1, read as caspase activation. caspase activation, % (concentration not given with the values). MEF A1-2A-BIM cells, Caspase-Glo 3/7 luminescence, 3 h; percent of clofoctol response, vehicle zero. 330,000 compounds, 0.066% hits;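 active means over half of replicate activation scores above 10%, or exactly half above 10 with the replicate mean above 10; inconclusive means replicate mean below 10 yet half the replicates above 10; inactive means over half of replicates below 10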;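 further: wells of about 30 µL received 50 nL stock; many hits fall short of the cut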
Vif A3G – inhibitors of Vif binding to APOBEC3G peptide, primary screen, biochemical, TR-FRET, GST-Vif 1-94, biotin-A3G peptide, dose response retest (AID 1117319); one-dose inhibition, %; IC50 in µM for titrated hits; 260,000 compounds, 0.57% hits; TR-FRET GST-Vif / biotin-A3G peptide binding; higher % means a stronger effect; test concentration not given here; strong numbers were not always called active;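 active means above the screen mean plus three standard deviations and confirmed in dose response; inconclusive means results disagree or hit not tested in dose response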;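 further: Vif residues 1-94 fused to GST binding biotinylated APOBEC3G peptide 110-148; 0% = full assay without inhibitor and 100% = GST in place of GST-Vif; retest series ran down from 100 µM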
AF4-AF9 inh – MLL-AF4/AF9 protein interaction inhibition. AlphaScreen, biotin-AF4 peptide binding to FLAG-AF9. inhibition, % at 10 µM. 350,000 compounds, 0.47% hits;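 active means every replicate reaching a set inhibition limit, whatever the replicate mean, cut at about 25% in these data; inconclusive means mean inhibition reaches that limit but some replicates miss it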;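 further: 0% = plate neutral control median and 100% = total signal loss; the record names both 10 and 1 µM as test concentration; the first replicate is given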
Target sequence (P42568 whole entry, looked up): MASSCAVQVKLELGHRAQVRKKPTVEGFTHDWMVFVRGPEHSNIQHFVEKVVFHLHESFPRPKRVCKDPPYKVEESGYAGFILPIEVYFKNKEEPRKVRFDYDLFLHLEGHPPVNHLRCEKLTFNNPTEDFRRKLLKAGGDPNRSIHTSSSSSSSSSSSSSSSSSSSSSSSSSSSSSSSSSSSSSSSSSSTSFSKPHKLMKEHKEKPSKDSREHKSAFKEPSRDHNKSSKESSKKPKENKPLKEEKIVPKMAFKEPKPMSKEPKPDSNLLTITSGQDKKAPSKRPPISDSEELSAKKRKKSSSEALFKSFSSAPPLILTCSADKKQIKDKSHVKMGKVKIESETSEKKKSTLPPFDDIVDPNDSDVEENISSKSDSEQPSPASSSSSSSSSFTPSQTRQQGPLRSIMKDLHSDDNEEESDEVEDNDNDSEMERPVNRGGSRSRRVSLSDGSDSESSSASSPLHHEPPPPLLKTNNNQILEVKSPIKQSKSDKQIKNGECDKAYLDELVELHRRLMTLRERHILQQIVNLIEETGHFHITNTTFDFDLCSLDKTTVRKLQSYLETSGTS
Calb FLC – affects C. albicans growth with fluconazole. C. albicans CaCi-2 (fluconazole-resistant clinical isolate) + fluconazole, Alamar Blue growth, 48 h. growth inhibition, % (test concentration not listed). 300,000 compounds, 0.57% hits. AID 1979;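 active means most replicates above 75%; inconclusive means exactly half above 75%; inactive means most below 75%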;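 further: all wells also contain fluconazole at 8 µg/ml as a sub-toxic cotreatment; 0% = median of DMSO wells and 100% = median of geldanamycin control wells; wells of about 8 µL received 7.5 nL stock; the first replicate is given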
rRNA inh HTS OD600 – further read-out of rRNA inh HTS, marked with its call; OD600 change, %; measured here: OD600 growth;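 optical density of the mix in the first replicate; 0 = DMSO median and -100 = no signal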
rRNA inh HTS RFP – second read-out of rRNA inh HTS, no call of its own (marks repeat the call); RFP signal change, %; measured here: RFP humanized mutant strains;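 first replicate; 0 = DMSO median and -100 = no signal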
* = called active by the depositor; ? = inconclusive; · = no result given; & = joins results of further samples.

SMILES	rRNA inh HTS	rRNA inh HTS OD600	rRNA inh HTS RFP	Beta apoptosis	RanGTP-Impb inh	T cruzi repl	A1 inh	Vif A3G	AF4-AF9 inh	Calb FLC
CCN1CC2=C(OC(N)=C(C#N)C2c2ccccc2)/C(=C\c2ccccc2)C1 (stereo not given)	·	·	·	·	21*	?	0.0	0%	·	4
Cn1c(SCC(=O)N/N=C/C=C/c2ccco2)nc2ccccc21	·	·	·	-3	-3.2	-7	-0.4	?	·	7
CS(=O)(=O)c1ccc(Cl)c(NC(=O)Cc2ccsc2)c1	12	18	0.5	·	1.7	5	-0.9	·	3.3	-4
O=S(=O)(/N=C(\Sc1ccccc1)c1ccccc1)c1ccc(Cl)cc1	·	·	·	-16	2.8	5	0.5	26%	·	-18
Cn1cccc1CNCC(O)c1ccccc1 (stereo not given)	5	4	5.3	·	-3.6	-6	0.4	14%	8.4	-5
COCCC(=O)N1CCC(Oc2ccc(C(=O)N3C[C@@H]4CCC[C@H]3C4)cc2)CC1	2	6	-1.9	4	3.4	-4	2.6	·	-4.7	27
CC(C)(C)c1cc(NS(=O)(=O)c2cccs2)no1	-6	0	-2.8	-11	2.9	-9	2.1	·	-5.0	4
Cc1cccc(OCC(=O)O/N=C(\N)Cc2cccs2)c1	·	·	·	·	2.7	-1	-0.7	1%	·	8
CCOC(=S)SCC(=O)Nc1nc(-c2ccccc2)cs1	·	·	·	0	2.4	7	0.7	?	·	21
COc1ccc(-c2cc(CNS(=O)(=O)c3cc(OC)ccc3OC)on2)cc1	-6	-7	1.1	-3	4.3	-1	0.6	·	-0.6	5
C=CCn1c(=O)c2ccccc2n2c(SCC(=O)NC)nnc12	1	8	1.4	·	-2.1	-2	0.8	-1%	-0.5	-1
COc1ccc(S(=O)(=O)N2CCOC2CNC(=O)C(=O)NCCCN2CCOCC2)cc1 (stereo not given)	2	1	1.3	-3	-3.4	-1	0.6	·	-0.4	-6
CCNC(=S)N1CCc2cc(OC)c(OC)cc2C1COc1ccc(OC)cc1 (stereo not given)	-8	0	-1.8	0	1.3	9	0.1	-2%	3.3	17
COc1ccc(CNC(=O)C(C)NS(=O)(=O)c2ccc(C)cc2)cc1 (stereo not given)	-36	-63	-2.7	-12	-2.2	5	0.7	-5%	-2.0	4
C=CS(=O)(=O)c1ccc(Oc2ccc(S(=O)(=O)C=C)cc2)cc1	-9	0	-2.8	106*	0.9	51	0.4	22%	-24	15
O=C1CC(c2ccc(Cl)cc2)n2nc(NS(=O)(=O)c3ccc(F)cc3)nc2N1 (stereo not given)	·	·	·	-1	8.0	-6	-1.0	3%	·	2
Cc1ccc(Cl)cc1NC(=S)N(CCN(C)C)Cc1cccs1	-11	-14	-2.1	-8	-2.1	-7	0.7	2%	1.8	-11
COc1ccc(Cc2c(O)nc(SCC(=O)NC34CC5CC(CC(C5)C3)C4)[nH]c2=O)cc1	3&-6	-3&-5	-2.7&2.5	-9	-2.3&-7.2	12&3	-0.2&1.1	8%&2%	1.6&-2.7	-6&-8
CC1=C(C(=O)NC2CC(C)(C)Cc3c2cnn3-c2cccc(F)c2)OCCO1 (stereo not given)	-7	-14	-0.7	-1	3.9	11	-0.3	6%	0.7	0
COc1cc(NC(=O)CSc2nc(C)cs2)cc(OC)c1	-30*	-11*	1.1*	3	-0.8	-6	-0.6	1%	-30	2
Cc1ccc(/C=N/NC(=O)c2c(-c3ccccc3)noc2C)c(O)c1	-39	-43	-4.8	93*	4.3	5	0.2	·	7.5	112*
Cc1c(-c2nc(-c3ccc(C(F)(F)F)cc3)no2)n(C)oc1=O	-4	-5	-0.8	2	-1.7	14	-2.7	·	2.1	-13
CC(C)(C)C(=O)Nc1cccc(-c2nc3ccccc3[nH]2)c1	·	·	·	-16	1.0	3	0.6	12%	·	-30
O=C(Nc1ncn[nH]1)c1ccccc1Br	13	-2	-0.5	-5	-2.1	-3	0.0	1%	3.9	-1
O=C(COc1ccc(Cl)cc1)N1CCCCC1	·	·	·	-3	4.8	-9	-0.7	8%	·	3
CC(=O)N(Cc1cc(=O)[nH]c2ccccc12)c1ccccc1C	6	13	4.1	-7	-2.7	7	0.1	-2%	-0.3	0
CCC(C)(CC(=O)O)CC(=O)Nc1cc(C(F)(F)F)cc(C(F)(F)F)c1 (stereo not given)	6	-4	-3.6	2	4.2	-13	1.2	2%	-1.6	-10
CCOc1ccccc1CN1CCN(Cc2[nH]c3ccccc3c2C)CC1CCO (stereo not given)	·	·	·	3	?	66*	-0.7	3%	·	-18
CN1CCN(CCC(=O)Nc2cccc(Br)c2)CC1	·	·	·	-4	4.5	6	0.2	?	-0.1	-9
S=C(NCC1CCCO1)Nc1ccc(Nc2ccccc2)cc1 (stereo not given)	-14	-21	2.3	·	-1.3	15	1.1	·	18	12
CCOCCn1c(CN2CCN(C(c3ccccc3)c3ccccc3)CC2)nc2c1c(=O)n(C)c(=O)n2C	-19	-14	-3.4	4	-0.3	15	0.4	5%	8.2	3
CCOC(=O)c1c(C)[nH]c(C)c1C(=O)COc1ncnc2ccccc12	3	-4	3.1	-2	-0.8	18	0.4	6%	2.3	-2
CCCc1nn(-c2ccccc2)c2c1C(c1cccs1)C(C#N)=C(N)O2 (stereo not given)	0	-1	3.0	-3	-0.5	-4	-0.2	8%	4.7	0
O=C(N/N=C/c1cccc(OC(=O)N2CCOCC2)c1)c1cccs1	·	·	·	-3	-2.0	-2	-7.6	31%	·	-10
Cc1ccc(NC(=O)CCNC(=O)c2ccc(Br)cc2)nc1	15	17	3.6	0	0.0	-3	-0.6	·	-2.2	3
CCOC(=O)C1=C(COC(=O)/C=C/c2ccc(Cl)cc2)NC(=O)NC1C (stereo not given)	-1	9	-3.8	3	-0.9	-11	-0.6	2%	-1.7	9
Cc1ccc(S(N)(=O)=O)cc1NC(=O)/C=C/c1ccc2c(c1)OCO2	5	6	-0.7	-5	6.1	-3	-0.4	3%	-2.1	-9
CC(c1ccccc1)N1CCn2c(nc3cc(NC(=O)NC4CCCCC4)ccc32)C1 (stereo not given)	·	·	·	1	?	11	-0.3	6%	·	0
CCc1ccc(S(=O)(=O)N(C(=O)c2ccncc2)c2ccc(OC(=O)c3ccncc3)cc2)cc1	·	·	·	-13	3.0	-29	0.5	·	·	-12
Cc1cc(SCc2ccc([N+](=O)[O-])cc2)nc(=O)[nH]1	0	6	-0.4	-3	8.5	?	-0.3	17%	4.0	-5
COc1ccc(N(C(=O)COc2cccc(C)c2)S(=O)(=O)c2ccc(C)cc2)cc1	·	·	·	-6	-2.0	-13	0.1	·	·	5
CCOC(=O)N1CCC(NC(=O)Cn2cccc2C(=O)c2ccccc2C)CC1	·	·	·	1	-2.4	-5	-0.2	-4%	·	2
CCn1c2ccccc2c2cc(/C=N/n3cn[nH]c3=S)ccc21	·	·	·	17	-3.9	0	-0.1	29%	·	-12
COc1cccc(C(=O)COC(=O)COc2c(C)cc(C)cc2C)c1	9	1	-1.8	-9	·	·	0.5	-2%	-1.4	·
Nc1nc(SCC(=O)c2cc3ccccc3o2)n[nH]1	6	6	1.4	-4	12	-7	1.7	-2%	-12	-10
COCCn1cc(C(=S)N2CCOCC2)c2ccccc21	·	·	·	-3	-1.0	-13	2.1	3%	·	?
Cc1ccc(NC(=O)CN(C)CC(=O)Nc2ccc(N3CCOCC3)cc2)c(C)c1	·	·	·	-1	-3.3	2	0.0	11%	·	2
COc1ccc(CN2CCOCCOCCN(Cc3ccc(OC)cc3)CCOCCOCC2)cc1	-2	-5	-1.1	11	-2.8	23	1.2	2%	18	-4

Another view of some results above.
The line under a structure holds: rRNA inh HTS | rRNA inh HTS OD600 | rRNA inh HTS RFP | Beta apoptosis | RanGTP-Impb inh | T cruzi repl | A1 inh | Vif A3G | AF4-AF9 inh | Calb FLC
> CCN1CC2=C(OC(N)=C(C#N)C2c2ccccc2)/C(=C\c2ccccc2)C1 (stereo not given)
    · | · | · | · | 21* | ? | 0.0 | 0% | · | 4
> Cn1c(SCC(=O)N/N=C/C=C/c2ccco2)nc2ccccc21
    · | · | · | -3 | -3.2 | -7 | -0.4 | ? | · | 7
> CS(=O)(=O)c1ccc(Cl)c(NC(=O)Cc2ccsc2)c1
    12 | 18 | 0.5 | · | 1.7 | 5 | -0.9 | · | 3.3 | -4
> O=S(=O)(/N=C(\Sc1ccccc1)c1ccccc1)c1ccc(Cl)cc1
    · | · | · | -16 | 2.8 | 5 | 0.5 | 26% | · | -18
> Cn1cccc1CNCC(O)c1ccccc1 (stereo not given)
    5 | 4 | 5.3 | · | -3.6 | -6 | 0.4 | 14% | 8.4 | -5
> COCCC(=O)N1CCC(Oc2ccc(C(=O)N3C[C@@H]4CCC[C@H]3C4)cc2)CC1
    2 | 6 | -1.9 | 4 | 3.4 | -4 | 2.6 | · | -4.7 | 27
> CC(C)(C)c1cc(NS(=O)(=O)c2cccs2)no1
    -6 | 0 | -2.8 | -11 | 2.9 | -9 | 2.1 | · | -5.0 | 4
> Cc1cccc(OCC(=O)O/N=C(\N)Cc2cccs2)c1
    · | · | · | · | 2.7 | -1 | -0.7 | 1% | · | 8
> CCOC(=S)SCC(=O)Nc1nc(-c2ccccc2)cs1
    · | · | · | 0 | 2.4 | 7 | 0.7 | ? | · | 21
> COc1ccc(-c2cc(CNS(=O)(=O)c3cc(OC)ccc3OC)on2)cc1
    -6 | -7 | 1.1 | -3 | 4.3 | -1 | 0.6 | · | -0.6 | 5
> C=CCn1c(=O)c2ccccc2n2c(SCC(=O)NC)nnc12
    1 | 8 | 1.4 | · | -2.1 | -2 | 0.8 | -1% | -0.5 | -1
> COc1ccc(S(=O)(=O)N2CCOC2CNC(=O)C(=O)NCCCN2CCOCC2)cc1 (stereo not given)
    2 | 1 | 1.3 | -3 | -3.4 | -1 | 0.6 | · | -0.4 | -6
> CCNC(=S)N1CCc2cc(OC)c(OC)cc2C1COc1ccc(OC)cc1 (stereo not given)
    -8 | 0 | -1.8 | 0 | 1.3 | 9 | 0.1 | -2% | 3.3 | 17
> COc1ccc(CNC(=O)C(C)NS(=O)(=O)c2ccc(C)cc2)cc1 (stereo not given)
    -36 | -63 | -2.7 | -12 | -2.2 | 5 | 0.7 | -5% | -2.0 | 4
> C=CS(=O)(=O)c1ccc(Oc2ccc(S(=O)(=O)C=C)cc2)cc1
    -9 | 0 | -2.8 | 106* | 0.9 | 51 | 0.4 | 22% | -24 | 15

Bioassay records as filed in PubChem BioAssay.

An excerpt (hit frequency here may not be typical).
